Source: PubChem
Vaccinia Venus: vaccinia inhibition (Venus reporter). Potency, µM (doses to about 36.5 µM), for inactives: at the top dose activity change, negative = inhibition, hits mostly inhibitors. 0.46% of 330,000 active. Vaccinia virus Venus reporter expression, fluorescence; active means well fitted inhibition curve with a large enough effect; inconclusive means small, poorly fitted or top-dose-only effect; inactive means no such curve, though single readings can be large or run the other way; tested in A549 cells; note: nearly all actives have a fitted effect of over 30% in size; inactives centre near -10
VACV mCherry inh: inhibitors of vaccinia virus infection (mCherry reporter signal); 0.63% of 310,000 active; Potency, µM (series often up to 36.5 µM), without a hit: at the highest dose activity change, negative = inhibition, actives largely listed as inhibitors; Vaccinia virus mCherry reporter infection, fluorescence; about a quarter of the inactives have no number; active = well fitted inhibition curve with a large enough effect; inconclusive = small, poorly fitted or top-dose-only effect; inactive = no such curve, though single readings can be large or run the other way; tested in A549 cells; note: nearly all actives have a fitted effect of over 35% in size; inactives centre near -10
Active calls of the source: *; i = inactive; ? = inconclusive; . = not tested or not shown; & = joins results of further samples; [ ] = remark or other dose. % is set by controls: 0 for no effect and ±100 for the full control effect; potency is the fitted concentration of half-maximal effect.

SMILES | Vaccinia Venus | VACV mCherry inh
O=C(NC1(C(F)(F)F)C(=O)Nc2c1c(=O)[nH]c(=O)n2-c1ccc(F)cc1)c1ccccc1 (configuration not stated) | -7.2% | -4.2%
CC1=CC(c2ccccc2)n2nc(NS(=O)(=O)c3ccc(C)cc3)nc2N1 (configuration not stated) | 1.9% | -10.2%
CCCCNCc1cc(Br)c(OCC(=O)NCc2ccccc2)c(OC)c1 | -1.7% | -8.8%
COc1ccc(NC(=O)c2ccco2)cc1NC(=O)c1cc(Cl)ccc1OC | -24.6% | -29.3%
C=CCN1C(=O)C(Cc2ccc(OC)cc2)SC1=Nc1ccc(C(=O)O)cc1 (configuration not stated) | -7.8% | -1.1%
CCOC(=O)N1CCC(NC(=O)C2CCN(S(=O)(=O)c3c(C)noc3C)CC2)CC1 | -6.8% | -3.0%
O=C(NCc1ccc2c(c1)OCO2)C(=S)N1CCOCC1 | -4.9% | i
COc1ccc(OC)c(NC(=O)[C@@H]2CCCN2C(=O)c2cccs2)c1 | -2.6% | -14.6%
COc1ccccc1N(C)S(=O)(=O)c1ccc(C(=O)OC(C)C(=O)NCc2ccc3c(c2)OCO3)cc1 (configuration not stated) | -10.8% | i
O=C1NC(=O)N(Cc2ccc(F)cc2)C(=O)/C1=C\c1ccc(N2CCCC2)cc1 | 17.3% | 3.4%
Cc1ccc(S(=O)(=O)CCC(=O)Nc2sccc2C#N)cc1 | -26.9% | -18.2%
CCOC(=O)c1c(NC(=O)c2noc(C)c2[N+](=O)[O-])sc(C(C)=O)c1C | -16.4% | i
COc1ccc2oc(N)c(C=O)c(=O)c2c1 | -9.2% | i
COC(=O)c1cc(=O)nc2scc(C)n12 | -9.7% | i
CCC(CC)C(=O)Nc1cccc(C(=O)N2CCOCC2)c1 | -6.3% | -17.5%
COc1ccc(CN2CCC(n3nccc3NC(=O)C3CCCC3)CC2)c(OC)c1 | -14.7% | -2.8%
COc1ccc(N(CC(=O)NCCSc2ccccn2)S(=O)(=O)c2ccccc2)cc1Cl | -19.2% | ?
CCCN(CCC)S(=O)(=O)c1ccc(C(=O)Nc2nc3c(s2)CCc2ccccc2-3)cc1 | 0.6% | -16.3%
O=C(/C=C/c1ccccc1)NCCSc1ccc(Cl)cc1 | -9.4% | -0.1%
COc1cccc(-c2csc(N3CCN(C(=S)Nc4ccc(Cl)cc4)CC3)n2)c1 | -27.0% | ?
COc1ccc(NC(=O)C2CCN(c3cc(C)nc(-c4ccccc4)n3)CC2)cc1 | ? | ?
O=C(O)C(=Cc1ccc([N+](=O)[O-])cc1)c1cccc(Cl)c1 | -8.3% | -1.7%
CCCOc1ccc(C(CC(=O)O)NS(=O)(=O)c2ccc(NC(C)=O)cc2)cc1 (configuration not stated) | -6.7% | -13.5%
CCOC(=O)Cn1c2c(c(=N)c3c1CCC3)CCCC2 | -15.7% | -8.0%
NC(=O)C1(Nc2ccccc2Cl)CCCC1 | -5.7% | i
NC(=O)c1cc(S(=O)(=O)Nc2ccccc2)cs1 | -9.0% | -4.1%
Oc1ccc(/C=C/c2ccc3ccccc3n2)cc1 | -21.5% | ?
CCCCC(O)(C(NC=O)C(=O)OC)C(F)(F)F (configuration not stated) | -16.3% | -7.7%
CCC1CCCCN1C(=O)c1cc2c(=O)n3cccc(C)c3nc2s1 (configuration not stated) | 0.9% | -5.0%
CCN(CC)C(=O)CN(c1cc2c(cc1OC)oc1ccccc12)S(=O)(=O)c1ccccc1 | ? | .
O=C(c1cc2cc(Cl)ccc2o1)N1CCCCCC1 | -28.3% | ?
CCCCC(CC)COP(=O)(OCC(CC)CCCC)OCC(CC)CCCC (configuration not stated) | ? | 2.51µM*
O=C(O)c1ccccc1CSc1ncn[nH]1 | -8.6% | i
COc1ccc(NC(=O)c2c([N+](=O)[O-])c(C(C)(C)C)nn2C)cc1 | -11.5% | -2.9%
COC(=O)c1ccc2nc(C(C)(C)C)c(Cc3ccc(OC)cc3C)n2c1 | 0.2% | 8.5%
CCC(C)(C)C1CCC(=NNC(=S)Nc2cccnc2)CC1 (configuration not stated) | -7.2% | ?
Cc1nnc(C)c2c(C)n(-c3ccc(Cl)c(N)c3)c(C)c12 | -3.2% | -5.3%
CCc1nn(C(CC)C(=O)NCC(C)c2ccccc2)c(=O)c2cc3occc3n12 (configuration not stated) | -12.9% | -9.4%
COc1cccc(CN(C)CC(=O)Nc2sc3c(c2C#N)CCC3)c1 | -3.3% | -2.8%
Cc1c(NC(=O)C(C)N2C(=O)NC3(CCC(C)CC3)C2=O)c(=O)n(-c2ccccc2)n1C (configuration not stated) | -14.1% | -3.4%
CCOC(=O)C1=C(N)OC2=C(C(=O)CCC2)C1c1cccnc1 (configuration not stated) | -17.3% | .
C=CCn1c(=O)c(C(=O)NCCc2ccccc2)c(O)c2ccccc21 | -12.7% | i
COc1ccc(C2C(C(=O)c3ccco3)=C(O)C(=O)N2CC2CCCO2)cc1 (configuration not stated) | -3.1% | i
CCNC(=O)/C(=C\c1ccccc1)NC(=O)/C=C/c1ccccc1 | -9.2% | -9.7%
CCOC(=O)c1c(NC(=O)CSc2nncs2)sc(C)c1-c1ccccc1 | ? | ?
Cc1[nH]c(=O)c(C#N)c(C)c1CCC(=O)Nc1cc(S(C)(=O)=O)ccc1Cl | -3.6% | -3.4%
Cc1cccc(NS(=O)(=O)c2ccc3c(c2)Cc2cc(S(=O)(=O)Nc4cccc(C)c4C)ccc2-3)c1C | -3.5% | -2.4%
CCc1ccc(NC(=O)COc2ccc(/C=C(/C#N)c3nc4ccccc4[nH]3)cc2OC)cc1 | ? | ?
COc1ccc(B(O)O)cc1 | -18.2% | 2.6%
CCCN(c1ccc(C(C)C)cc1)S(=O)(=O)c1c(C)noc1C | -14.3% | -13.7%
CC(=O)Nc1ccc(Oc2cc(C#N)c(C#N)cc2N2CCOCC2)cc1 | -20.1% | .
CC1CCN(S(=O)(=O)c2ccc3c(c2)N(CC(=O)NCCCOC(C)C)C(=O)CO3)CC1 | -7.2% | -17.8%
CN(CC(=O)Nc1c(Cl)cccc1Cl)C(=O)Cc1ccc2c(c1)CCC2 | -7.9% | -23.4%
O=C(/C=C/c1ccccc1)NCC(=O)N/N=C/c1ccco1 | 1.7% | 2.4%
O=C(NNC(=O)c1sccc1-n1cccc1)Nc1ccccc1 | -13.6% | -11.4%
CC(C)CCOc1ccc(Oc2nc(N(C)C)nc(N(C)C)n2)nn1 | -20.7% | -20.8%
O=C(O)CCCCn1c(SCC(=O)Nc2ccccc2C(F)(F)F)nc2ccsc2c1=O | -10.0%&-1.4% | -17.4%&8.9%
COc1ccc(CCNC(=O)Nc2ccc3c(c2)c(=O)n(C)n3Cc2ccc(Cl)cc2)cc1OC | -11.8% | -14.0%
Cc1noc(C)c1CSc1cc(C)c2ccccc2n1 | -16.6% | -3.0%
CCC(=C(c1ccc(OC)cc1)c1ccc(OC)cc1)c1cn(CC(O)CN2CCN(C)CC2)c2ccccc12 (configuration not stated) | ? | ?
Following part
SMILES | Vaccinia Venus | VACV mCherry inh
O=C1CCSc2c1ccc1ccccc21 | -8.7% | -25.8%
CCc1nc(N2CCNCC2)c(C#N)c2c1CSC(C)(C)C2 | -15.8% | -13.4%
Cc1ccc2nc(NC(=O)c3nc(SCc4ccccc4C)ncc3Cl)sc2c1 | 4.1% | 0.2%
CCCn1c(CN2CCN(C(C)=O)CC2)nc2cc(S(=O)(=O)N(C)C)ccc21 | -12.3% | i
COc1ccc(OCCNC(=O)c2ccccc2OCC(=O)Nc2ccc(NC(C)=O)cc2)cc1 | -14.3% | -27.4%
O=C(C[C@@H]1C/C=C/CCCC(=O)O[C@H](c2ccccc2)CNC1=O)N[C@H](CO)Cc1ccccc1 | -13.4% | i
CCN(CC)S(=O)(=O)c1cc(NC(=O)CSc2nnc(-c3cccs3)o2)ccc1C | -20.4% | i
O=C(CCCc1nc(-c2ccccc2)no1)Nc1cccnc1 | -16.6% | -15.7%
O=S(=O)(c1ccc(Cl)cc1)N1CCCC1c1nc(-c2ccc(Cl)cc2)no1 (configuration not stated) | -15.5% | -25.8%
CC(C)(C)c1ccccc1OCCCCCn1ccnc1 | -2.4% | -6.9%
COc1ccc(-c2[nH]ncc2C(=O)NCc2cccc(F)c2)cc1 | -7.0% | -9.5%
CCN1CCN(C(C)CCc2ccccc2)CC1 (configuration not stated) | -2.1% | i
COC(=O)C1=C(C)N(CCc2ccc(OC)c(OC)c2)C(=O)/C1=C\N(C)C | -9.2% | -14.6%
O=C(CCCOc1cccc(Br)c1)NC1CCC(O)CC1 (configuration not stated) | -11.0% | -10.1%
Cc1cc(C(=O)CN2C(=O)NC(CC(C)C)C2=O)c(C)n1C1CC1 (configuration not stated) | -4.0% | -12.3%

Fetched by compound from above, 7 records:
SMILES | Vaccinia Venus | VACV mCherry inh
Cc1ccc2nc(NC(=O)c3nc(SCc4ccccc4C)ncc3Cl)sc2c1 | 4.1% | 0.2%
O=C(CCCOc1cccc(Br)c1)NC1CCC(O)CC1 (configuration not stated) | -11.0% | -10.1%
COc1ccc(-c2[nH]ncc2C(=O)NCc2cccc(F)c2)cc1 | -7.0% | -9.5%
CCN(CC)S(=O)(=O)c1cc(NC(=O)CSc2nnc(-c3cccs3)o2)ccc1C | -20.4% | i
O=C(CCCc1nc(-c2ccccc2)no1)Nc1cccnc1 | -16.6% | -15.7%
COC(=O)C1=C(C)N(CCc2ccc(OC)c(OC)c2)C(=O)/C1=C\N(C)C | -9.2% | -14.6%
O=C(C[C@@H]1C/C=C/CCCC(=O)O[C@H](c2ccccc2)CNC1=O)N[C@H](CO)Cc1ccccc1 | -13.4% | i

Returning to the listing; the four compounds before the break are reprinted first.
SMILES | Vaccinia Venus | VACV mCherry inh
CCN1CCN(C(C)CCc2ccccc2)CC1 (configuration not stated) | -2.1% | i
COC(=O)C1=C(C)N(CCc2ccc(OC)c(OC)c2)C(=O)/C1=C\N(C)C | -9.2% | -14.6%
O=C(CCCOc1cccc(Br)c1)NC1CCC(O)CC1 (configuration not stated) | -11.0% | -10.1%
Cc1cc(C(=O)CN2C(=O)NC(CC(C)C)C2=O)c(C)n1C1CC1 (configuration not stated) | -4.0% | -12.3%
O=C(CCNS(=O)(=O)c1ccccc1C(F)(F)F)N1CCN(S(=O)(=O)c2cccc(Cl)c2)CC1 | -25.4% | ?
CCOC(=O)c1cnc2nc(SC)nn2c1N | -0.4% | i
CCOc1cc(CNC(=O)CSc2n[nH]c(-c3ccccc3)n2)cc(OCC)c1OCC | -16.4% | i
CCCCCC/C=N/Nc1nnc(Cc2ccc(OC)c(OC)c2)c(=O)[nH]1 | -14.6% | -16.1%
COc1ccc(S(=O)(=O)N(C)CC(=O)Nc2ccccc2C(F)(F)F)cc1 | -6.1% | -9.9%
Cn1ncc(S(=O)(=O)Cc2ccccc2)c(Cl)c1=O | -4.3% | i
CO[C@H]1CC[C@@]2(C)[C@@H](CC[C@@H]3[C@@H]2CC[C@@]2(C)[C@H]3C[C@H](C(=O)N[C@@H](CCCN=C(N)N)C(=O)NCC(=O)N[C@@H](CC(=O)O)C(N)=O)O[C@]23CCCO3)C1 | -10.0% | i
COc1ccc(CC(=O)N2CCN(c3ccccc3OC)CC2)cc1 | -9.2% | i
O=c1[nH]cc(COCC(F)(F)C(F)(F)C(F)(F)F)c(=O)[nH]1 | -10.4% | -2.3%
CC(C)OC(=O)N(C)C[C@@H]1OCc2ccccc2-c2c(n(C)c3ccccc23)C(=O)N([C@@H](C)CO)C[C@H]1C | -5.1% | i
CCC(=O)Nc1ccc(C(=O)COC(=O)C(CCSC)NC(=O)COc2ccccc2)cc1 (configuration not stated) | -0.3% | -9.8%
O=C(Oc1ccc(/C=N/Nc2nc(N3CCCCC3)nc(N3CCCCC3)n2)cc1)c1ccco1 | ? | -17.7%
COc1ccc(CNCCc2c(C)[nH]c3ccc(OC(F)(F)F)cc23)c(OC)c1 | -20.7% | ?
CC(=O)N=C(N)Sc1nc2ccccc2[nH]1 | -5.4% | -9.6%
CCc1c(C(=O)OCc2ccccc2)[nH]c(C)c1C | -4.4%[7.34 µM] | -2.6%[7.34 µM]
